Compound activity deposited in PubChem by Center for Chemical Genomics, University of Michigan.
CDC25B-CDK2 inh – primary biochemical HTRF screen for blockers of M-phase inducer phosphatase 2 binding to CDK2/cyclin A | z-score (no concentration beside the values) | 94,000 compounds, 0.72% hits | P30305+P24941 | AID 1259370, 2018 | HTRF CDC25B-CDK2/CyclinA binding, anti-His/anti-Flag; hits give high values;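 note: score is relative to mean and SD of negative controls; strong numbers were not always called active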
HIV TAR-Tat – TAR RNA-Tat peptide displacers, HIV-1, primary screen, biochemical, FRET, FAM/TAMRA-labeled Tat; z-score (test concentration not listed); 100,000 compounds, 0.6% hits; HIV-1 TAR RNA, Tat peptide displacement FRET; hits give high values; AID 1259389, 2018;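 note: score is relative to mean and SD of negative controls; some compounds called inactive have numbers as strong as hits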
An asterisk follows results filed as active; x = not tested or not shown.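 Rule for the calls: active = z-score from 3 up in half or more of its runs; inactive = the rest.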

SMILES	CDC25B-CDK2 inh	HIV TAR-Tat
CCN1CCN(CCCNC(=O)c2cnc(N3CCOCC3)nc2)CC1	x	0.66
Cc1c(C(=O)O)sc2ncnc(NCCC3=CCCCC3)c12	x	6.6*
Cc1ccc2c(c1)-c1onc(C(=O)N(C)Cc3ccco3)c1CO2	x	2.7
COC(=O)c1cnc(SCC(=O)Nc2cccc(Cl)c2)n1C	-2.6	x
O=C(Oc1nsnc1N1CCOCC1)N1CCOCC1	0.1	0.54
O=C(NC1(C(F)(F)F)Oc2ccc(Cl)cc2O1)N1CCCCC1 (configuration not stated)	-0.66	x
O=C(c1cc2ccsc2[nH]1)N1CCC(C(=O)N2CCOCC2)CC1	x	0.69
CCCN(CCC)C(=O)c1c[nH]c2ccc(S(=O)(=O)N(CC)c3ccc(F)cc3)cc2c1=O	x	-0.35
CCOc1ccc(Nc2cnc3ccccc3n2)cc1	-2.9	0.29
c1ccc(CCNc2nc3ccccc3c3nc(-c4cccnc4)nn23)cc1	-1.5	x
CCOC(=O)c1noc2c1COc1ccccc1-2	-1.1	0.19
c1ccc(CCNc2nc(-c3cccnc3)nc3ccccc23)cc1	-1.6	x
CCOC(=O)C(CC)Oc1ccc2c(C)c(CC)c(=O)oc2c1 (configuration not stated)	0.43	x
O=C(Nc1ccc(Sc2cccs2)cc1)c1ccc(Cl)cc1	-3.2	x
Cc1cccc(NC(=O)Nc2c(C)n(C)n(-c3ccccc3)c2=O)c1	-1.7	-1.2
C=CCn1c(=O)c(C(=O)Nc2ccc(Br)cc2)c(O)c2ccccc21	-0.71	-0.16
Cc1nn(S(=O)(=O)c2ccc3ccccc3c2)c(C)c1S(=O)(=O)N1CCOCC1	x	1.3
O=c1c(C2SCCS2)coc2ccccc12	-2.2	x
O=C(O)CCc1[nH]c2ccccc2c1Sc1ccccc1	-1.1	x
O/N=C/c1ccc(C#Cc2ccccc2)cc1	-1.5	x
Cc1cc(C)cc(OC(C)C(=O)N(Cc2ccco2)C2CCS(=O)(=O)C2)c1 (configuration not stated)	-2.2	1.3
O=C(c1cc2c(s1)-c1ccccc1S(=O)(=O)C2)N1CC=C(c2ccccc2)CC1	-10	1.7
O=C(CCc1nnc2ccc(NCc3cccnc3)nn12)NC1CCCC1	x	1.8
COc1ccc2c(c1)[C@@]1(C)CC[C@@H](O)C[C@@H]1CC2	x	0.16
O=C(O)CCCN1C(=O)c2ccc(C(=O)O)cc2C1=O	-1.4	x

(listing goes on)
SMILES	CDC25B-CDK2 inh	HIV TAR-Tat
CCOC(=O)c1cc(-c2ccc(S(=O)(=O)Nc3ccc(Br)c(C)c3)s2)on1	x	-0.82
CC1Cc2ccccc2N1S(=O)(=O)c1ccc2c(c1)NC(=O)CO2 (configuration not stated)	x	2.4
Cc1cc(Nc2ccc(N(C)C)cc2)n2nc(Cc3ccccc3)nc2n1	-2	1.4
CCOC(=O)N1CCC(Nc2c(N3CCN(C)CC3)c(=O)c2=O)CC1	-1.9	-1.8
Cc1csc(NC(=O)C2CCCN(S(=O)(=O)c3ccc4c(c3)oc(=O)n4C)C2)n1 (configuration not stated)	-1.7	x
ON(Cc1cccc(C(F)(F)F)c1)Cc1cccc(C(F)(F)F)c1	-2.5	x
C=CCOc1ccc(NC(=O)CN2C(=O)c3ccccc3S2(=O)=O)cc1	-2.2	0.28
Cc1nc(SCC(=O)c2cc3ccccc3oc2=O)c(C#N)c(C)c1C	-0.27	x
FC(F)(F)c1cccc(OCc2noc(-c3ccsc3)n2)c1	-1.6	x
Cc1cc(C)cc(NC(=O)N2CCCC2c2ccco2)c1 (configuration not stated)	-2.1	0.92
Cc1cc(C)cc(NC(=O)CCc2c(C)nn3cnnc3c2C)c1	x	0.1
CC(=O)NCCNC(=O)CCCc1nnc2n(C)c(=O)c3sccc3n12	-0.32	-1.6
COc1ccc(CN[C@H]2CS(=O)(=O)C[C@@H]2S(=O)(=O)c2ccc(Cl)cc2)cc1	-0.84	-0.8
Fc1ccc(-c2csc3ncnc(NC4CCCC4)c23)cc1	x	-0.21
CC(C)OC(=O)c1nnc(-c2ccc3c(c2)OCO3)o1	-2.1	0.85
COc1ccc2[nH]cc(CCNC(C)=O)c2c1	-0.76	2.1
O=[N+]([O-])c1ccc(/C=N/O)s1	-0.75	x
NNC(=S)Nc1c(Br)cc(F)cc1Br	-0.91	x
CC1=C(C(=O)OC2CCCCC2)C(c2ccc(C)cc2)C2=C(CCCC2=O)N1 (configuration not stated)	-1.4	-0.42
O=S(=O)(Cc1noc(-c2ccccc2)n1)c1ccc(F)cc1	-3.6	x
COC(=O)c1cc(S(=O)(=O)N2CC(C)CC(C)C2)c[nH]1 (configuration not stated)	x	3.2
CSCCC1Oc2ccc(Br)cc2C2CC(c3ccccc3O)=NN12 (configuration not stated)	-0.77	-0.59
COCc1cc(=O)[nH]c(SCC(=O)C(C)(C)C)n1	-0.4	x
COc1ccc(OC)c(C2CC(=O)Oc3c2c(=O)n(C)c2ccccc32)c1 (configuration not stated)	-1.3	1.3
Cc1ccc2cc(NC(=O)c3cc(-c4ccccc4)oc3C)ccc2n1	-2.4	x

(listing goes on)
SMILES	CDC25B-CDK2 inh	HIV TAR-Tat
CC(C)(C)Nc1c(N)c(=O)oc2ccccc12	-1.8	x
N#CC1=C(N)OC(c2cccnc2)=C(C#N)C1c1cccs1 (configuration not stated)	-1.2	x
Cc1ccc(-c2nc(NC(=O)c3snnc3C)sc2C)cc1Cl	-2.1	x
CCCN(CCS(=O)(=O)N1CCNCC1)S(=O)(=O)c1ccc(Cl)cc1	x	2.1
CC(C)(C)NC(=O)CN1CCSc2ccccc21	x	0.55
Cc1ccc(S(=O)(=O)c2nnn3c2nc(N)c2cc(Cl)ccc23)cc1C	-2.4	0.44
CC(C)Nc1nc(Cl)nc(Nc2cccc(C(F)(F)F)c2)n1	0.04	x
O=c1[nH]c2ccc(S(=O)(=O)N3CCN(c4ccccc4F)CC3)cc2s1	-0.36	x
O=C(NNc1ccccc1C(F)(F)F)c1c(F)cccc1Cl	-2.3	x
Cn1c(=O)c2c(nc(NCCO)n2Cc2cccc(C(F)(F)F)c2)n(C)c1=O	0.62	x
COc1ccc(Nc2nc3ccccc3n3c(C)nnc23)c(OC)c1	0.72	1.7
O=C1C2(c3ccccc3)CN3CC1(c1ccccc1)CN(C2)C3c1ccccn1 (configuration not stated)	0.32	0.01
Nc1ccc(-c2ccc3ccccc3n2)cc1	-1.2	x
CCOc1cc(C2C(C#N)=C(N)Oc3n[nH]c(C)c32)ccc1OCc1ccc(Cl)cc1 (configuration not stated)	-1.1	1
O=C(NC1CCCCC1)C1c2cccn2-c2sc3c(c2C(=O)N1CCN1CCOCC1)CCCC3 (configuration not stated)	-2.4	0.92
Cc1cccc(C)c1OCc1nc2c3cnn(-c4ccccc4Br)c3ncn2n1	-2.6	2.3
Cn1c(=O)c(=O)n(CC(=O)O)c2ccccc21	1.1	0.41
CCOc1ccc(N2Cc3ncccc3C2=O)cc1	-1.1	-0.86
Cc1cc(-c2ccc(C)c(S(=O)(=O)N3CCN(c4ccccn4)CC3)c2)on1	x	0.47
Cc1cc(C)n(-c2ccc(SCC(=O)Nc3ccc(Cl)cc3)nn2)n1	-1.9	x
COC(=O)/C(=C\N(C)C)S(=O)(=O)c1cc(C)c(Cl)cc1C	-0.79	x
CC1(C)CC(=O)C2=C(C1)Nc1nc(SCc3ccccc3F)nn1C2c1ccncc1 (configuration not stated)	-0.56	x
COc1ccc(C2CC(=O)N3CN(C4CCCC4)CSC3=C2C#N)cc1OC (configuration not stated)	5.9*	-2.1
Cc1onc(C(=O)Nc2sc3c(c2C(N)=O)CCCC3)c1[N+](=O)[O-]	0.59	-0.14
CCC1(C)Cc2c(sc3c2c(=O)n(C)c2n[nH]c(=S)n32)CO1 (configuration not stated)	-3.5	x

The list continues.
SMILES	CDC25B-CDK2 inh	HIV TAR-Tat
CN1C(=O)C2(c3ccccc31)c1c(oc3ccccc3c1=O)C(=O)N2CCO (configuration not stated)	-1.4	0.74
Cc1sc2ncn(CC(=O)NCCC3=CCCCC3)c(=O)c2c1S(=O)(=O)N1CCCCC1	0.96	x
COc1ccc(OC)c(-n2c(N)c(C(=O)Nc3ccccc3OC)sc2=S)c1	-0.1	0.16
CC(=O)N1CCC(N(Cc2ccco2)C(=O)NC2CCCC2)CC1	x	1.5
Cc1noc(/C=C/N(C)C)c1S(=O)(=O)N1CCC(C(=O)NC2CCCc3ccccc32)CC1 (configuration not stated)	-2.5	-2.5
COc1cccc(-c2ccnc3[nH]n(-c4nc(C)cc(C)n4)c(=O)c23)c1	-3.1	1.2
O=C(c1ccco1)N1CCN(c2ccc(Cl)cc2)CC1	x	0.26
Cc1cc2c3c([nH]c2cc1S(=O)(=O)Nc1ccc(-c2ccno2)cc1)CCCC3=O	x	0.4
CCN(CC)c1ccc(/C=N/NC(=O)c2cc(-c3ccccc3)n[nH]2)cc1	-3.7	x
O=C(c1ccccc1)c1ccncc1	-1.6	1.3
O=S(=O)(c1ccc(Nc2cc(-c3ccccc3)ncn2)cc1)N1CCCC1	-1.2	1.4
CNc1cc(C)nc2c(-c3ccc(F)cc3)c(C(F)(F)F)nn12	-0.13	0.55
COC(=O)c1cc2cccc3c2n1CCS3	-3.8	-2.6
CN(C)c1ccc(/C=N/OC(=O)Nc2ccc(C(F)(F)F)cc2)cc1	-0.06	x
O=C(CN1c2ccccc2NC2=C(C(=O)CCC2)C1c1cccs1)Nc1nccs1 (configuration not stated)	x	1.1
COc1ccc(Cl)cc1NC(=O)N1CC2CCCN2c2ccccc21 (configuration not stated)	x	0.75
CN(C)C(CNC(=O)c1cc(-c2ccc3c(c2)CCCC3)on1)c1cccs1 (configuration not stated)	-0.57	-2.1
COCC(=O)N1CC(=O)Nc2ccccc21	-0.17	0.15
CC12CN3CC(C)(CN(C1)C3c1ccc(O)cc1)C2 (configuration not stated)	-1.3	x
Cc1oc(-c2ccccc2F)nc1CSCC(=O)O	x	2.4
CCCc1c(C(=O)Nc2ccc(Cl)cc2)cnn1C	-0.69	x
Cc1cc(C)nc(N2CCC(NC(=O)Nc3ccc(F)cc3F)CC2)n1	-1.4	2.4
O=C1c2ccccc2S(=O)(=O)N1CC(O)COc1ccc(Br)cc1 (configuration not stated)	0.38	x
COC(=O)c1cc(NC(=O)c2c(-c3c(Cl)cccc3Cl)noc2C)ccc1N1CCOCC1	-0.39	x
CCn1c(CN(C)C(C)=O)nc2ccccc21	-0.66	4.8

Later entries:
SMILES	CDC25B-CDK2 inh	HIV TAR-Tat
O=C(CSc1nnc2ccccn12)Nc1ccc2c(c1)OCO2	-1.8	x
COCCCNC(=O)N1CCN(c2nc3cc(F)ccc3n3cccc23)CC1	x	0.57
CCN(CC)CCNc1ncnc2sc3c(c12)CCCC3	0.22	x
Cc1nn(CC(=O)NCCCN2CCCC2=O)c(=O)c2cccn12	-1.8	1.1
COc1ccc(C2c3c([nH][nH]c3=O)CC(C)(O)C2C(=O)OCc2ccccc2)cc1OC (configuration not stated)	1.5	0.9
Cc1cc(CNC(=O)Nc2cc(F)ccc2F)c(C)n1-c1ccc(F)cc1	x	-1.2
COc1ccccc1NC(=O)C1c2cc(OC)c(OC)cc2C(=O)N2CCc3ccccc3C12 (configuration not stated)	-0.52	x
c1ccc2c(c1)NC(c1c[nH]c3ccccc13)N2	-0.42	x
CC1(C)CC23C(=O)CCC(O)C2(C)CCC13 (configuration not stated)	x	1.7
Cc1[nH]c(=S)c(C#N)c(C)c1CCC#N	-0.81	x
Cc1ccc(CCNC(=O)NCc2noc3ccc(C)cc23)cc1	x	1.4
O=C(O)C(F)(F)C12OC3C4C5CC(C6C5C3C61)C42 (configuration not stated)	0.22	x
c1ccc(-c2noc(-c3ccccn3)n2)cc1	-1.1	0.81
O=C1C2C3C=CC(C2C(=O)N1c1ccc(O)cc1)C1C2C(=O)N(c4ccc(O)cc4)C(=O)C2C31 (configuration not stated)	-1.7	x
COC(=O)c1sc2ccccc2c1S(=O)(=O)Nc1ccc2c(c1)OCCO2	x	-0.67
COc1ccccc1C(=O)OCc1cc(=O)n2ccsc2n1	x	-0.52
COCc1cc(C)nc(Sc2nc3c(c(=O)n(C)c(=O)n3C)n2C)c1C#N	-3.7	-2
COc1ccc(Nc2nc(N3CCN(c4ccccc4)CC3)nc3c2cnn3C)cc1	x	0.47
Cc1c(C(=O)O)oc2c1-c1nn(Cc3cccc(Cl)c3)cc1CC2	-1	1
Cc1ccc2ccc(C(Nc3ccccn3)c3cccc(Cl)c3)c(O)c2n1 (configuration not stated)	-1.5	1.7
